Sa ugtP lethal: growth inhibition of ugtP-null S. aureus, primary screen, RN4220 ugtP deletion, OD600. hit rate 0.54% among 330,000. growth inhibition, % (no concentration beside the values). AID 1259309, 2017. 16 h; some inactives read as strong as hits;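 active = z-score under -3 and OD600 up to 0.15 on both plates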;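 also: plate controls were untreated wells for no effect and antibiotic for full effect; wells of about 80 µL received 100 nL stock; the first replicate is given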
PrP UTR inh: inhibition of PrP 5' UTR reporter expression | cell-based PrP 5' UTR mRNA reporter, plate reader | inhibition, % (concentration not given with the values) | hit rate 0.35% among 340,000;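 active = every replicate at 50% or more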;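 also: 0 = median of the neutral control wells; tested in H4 reporter cells; numbers are from one replicate; inactives centre near -14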
Sa RN4220 lethal: growth inhibition of S. aureus RN4220, primary screen, OD600 | 16 h | inhibition, % (no concentration beside the values) | hit rate 0.33% among 330,000 | AID 1259311, 2017;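 active = z-score of -3 or lower and OD600 up to 0.18 on both plates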;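 also: plate controls were untreated cells for no effect and reference antibiotic for full effect; stock transfer was 100 nL into about 80 µL; one replicate is shown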
BJeLR lethal: MLPCN primary cell-based screen for lethality selective to Ras in HRASV12 cells; BJeLR (HRASV12) viability, CellTiter-Glo ATP luminescence, 48 h; reference of the scale not given here; inhibition, % (test concentration not listed); hit rate 0.17% among 300,000; AID 1554, 2009;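 active = replicate mean above 50%; inconclusive = above 50% but judged a plate artefact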;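 also: 50 nL library stock added to about 25 µL; numbers are from one replicate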
Mtb hypoxia inh: PubChem AID 1159583. M. tuberculosis hypoxia-regulated fluorescent reporter, fluorescence. fluorescence inhibition, % (test concentration not listed). hit rate 0.1% among 300,000;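 active = 35 to 45% if threefold the growth effect, above 45% if 1.5-fold the growth effect; inactive = the rest, general growth blockers included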;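 also: wells of about 50 µL received 100 nL stock; 0% = vehicle wells and 100% = reference inhibitor wells; whole bacteria with a GFP reporter of the hypoxia response; strong numbers were not always called active; many hits fall short of the cut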
Bead autofluor: counter-screen for toxin protease inhibitors: compound fluorescence; hit rate 3.1% among 360,000; fluorescence intensity (test concentration not listed); compound autofluorescence counterscreen, microsphere flow cytometry; active compounds read high;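 active = at least 3 SD above the mean of all compounds, about 16000 in these data; inconclusive = too few beads counted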;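 also: 100 nL of 1 mM stock went into each well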
Mtb hypoxia inh growth: second read-out of Mtb hypoxia inh, no call of its own (marks repeat the call); growth inhibition, %; measured here: M. tuberculosis growth (absorbance);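 0% = vehicle and 100% = reference antibiotic; read after six days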
The depositor's hits bear a star; ? = inconclusive; nt = not tested or not shown.

Sample of the layout (four entries):
SMILES | Sa ugtP lethal | PrP UTR inh | Sa RN4220 lethal | BJeLR lethal | Mtb hypoxia inh | Mtb hypoxia inh growth | Bead autofluor
Fc1ccc2nc3c(nc2c1)CCCC3 | 4 | -31 | 3.4 | 0 | 4 | 4 | 3607
Cc1cc(C)nc(NC(=NCCc2c[nH]c3ccccc23)NC(=O)c2ccco2)n1 | nt | -8 | nt | -4 | nt | nt | 2882
CCN(CC)C(=O)CSc1nc2sc3c(c2c(=O)n1-c1ccc(C)cc1)CC(C)(C)SC3 | -6 | -5 | -12 | 8 | -4 | -6 | 3589
CCN(CC)S(=O)(=O)c1ccc(NS(=O)(=O)c2cccs2)cc1 | 10 | -29 | 14 | -4 | -7 | -1 | 4076

The whole of this part, from the first entry:
SMILES | Sa ugtP lethal | PrP UTR inh | Sa RN4220 lethal | BJeLR lethal | Mtb hypoxia inh | Mtb hypoxia inh growth | Bead autofluor
Fc1ccc2nc3c(nc2c1)CCCC3 | 4 | -31 | 3.4 | 0 | 4 | 4 | 3607
Cc1cc(C)nc(NC(=NCCc2c[nH]c3ccccc23)NC(=O)c2ccco2)n1 | nt | -8 | nt | -4 | nt | nt | 2882
CCN(CC)C(=O)CSc1nc2sc3c(c2c(=O)n1-c1ccc(C)cc1)CC(C)(C)SC3 | -6 | -5 | -12 | 8 | -4 | -6 | 3589
CCN(CC)S(=O)(=O)c1ccc(NS(=O)(=O)c2cccs2)cc1 | 10 | -29 | 14 | -4 | -7 | -1 | 4076
Cc1cc(C)nc(Sc2nc(Nc3ccccc3)nc(Sc3nc(C)cc(C)n3)n2)n1 | 4 | -10 | 2.3 | 6 | 4 | 1 | 2513
COc1ccc(COC(=O)C2CCN(S(=O)(=O)c3ccc(C)cc3)CC2)cc1 | -1 | -16 | 0.2 | -8 | 5 | 1 | 5361
COc1ccc2c(c1)C(C)=CC(C)(C)N2C(=O)CSc1nnc(-c2ccc(C)cc2)o1 | -21 | -21 | 11 | -14 | 0 | 8 | 9752
C=CCN1C(=O)/C(=C/c2cccs2)S/C1=N\S(=O)(=O)c1ccc(F)cc1 | nt | -21 | nt | 2 | nt | nt | 9481
COc1ccc(OCC#CCn2ccnc2)cc1 | -1 | 1 | 7.0 | -2 | 20 | 0 | 1962
O=C(O)c1cccc(NC(=O)c2cc(-c3cccc(Cl)c3)nc3ccccc23)c1 | 6 | -19 | 5.3 | 5 | 6 | 0 | 3367
CCOC(=O)N1CCN(C(=O)CSc2ncnc3sccc23)CC1 | -3 | -19 | 1.5 | nt | 6 | 3 | 4030
COc1ccc(CCN(C)C(=O)CNC(=O)c2ccccc2F)cc1OC | -69 | -23 | 3.9 | 1 | 12 | 2 | 3840
CCCCc1cc(=O)oc2cc(OC(C)C(=O)NCCN3CCOCC3)c(Cl)cc12 (configuration not stated) | -1 | 2 | -1.4 | -4 | 4 | -1 | 4094
N#Cc1nc(-c2cccc3ccccc23)oc1N1CCCCC1 | 5 | -79 | -1.2 | -3 | 1 | 0 | 3148
Cn1c(=O)c2c(ncn2CC(=O)OCCCC(=O)c2ccc(Br)cc2)n(C)c1=O | 9 | -16 | 4.2 | nt | 10 | 6 | 2886
CN(C)S(=O)(=O)c1cccc(COC(=O)Cc2c(F)cccc2Cl)c1 | 1 | -22 | 5.3 | 5 | 11 | -11 | 5759
O=c1sc2ccccc2c(N2CCCCC2)c1[N+](=O)[O-] | 3 | -16 | 4.8 | 12 | 7 | -6 | 4270
COC(=O)c1c(NC(=O)C(=O)N2CCCC2)sc2c1CC(C)(C)OC2 | 0 | -10 | 1.3 | -3 | 2 | 7 | 5168
O=[N+]([O-])c1ccc(-c2cn(-c3ccc(Cl)cc3)c(=S)[nH]2)cc1 | -2 | -39 | 5.4 | -5 | 15 | 5 | 9118
Cc1ccc(NC(=O)CSc2nnc(Cn3c(=O)sc4ccccc43)n2C)cc1Cl | 21 | -8 | 5.3 | -7 | nt | nt | 6089
O=C(c1ccccc1)N1CCN2C(=O)c3ccccc3C12c1ccc(Cl)cc1 (configuration not stated) | 10 | 7 | 3.6 | 5 | nt | nt | 2687
CSc1nc2c(cnn2-c2ccccc2)c(=O)n1N | -4 | -38 | 2.0 | 1 | 10 | 12 | 2513
COc1ccc(CNC(=O)COc2ccc(S(=O)(=O)N3CCOCC3)cc2)cc1 | 6 | -19 | 4.2 | 1 | 4 | 7 | ?
N#Cc1ccsc1NC(=O)c1ccccn1 | -1 | -23 | 3.8 | -4 | 1 | 3 | 22222*
O=C1C2C3c4ccccc4C(c4ccccc43)[C@@H]2C(=O)N1c1cccnc1 (some centres not stated) | -3 | -7 | 6.4 | -9 | 3 | 7 | 2055
Cc1ccc(NC(=O)Cn2cccc2C2=NC(c3ccccc3)CO2)c(C)c1 (configuration not stated) | -2 | -16 | 6.1 | -1 | 9 | 2 | 10499
Cc1cccc(N(CC(=O)NCCC2=CCCCC2)S(C)(=O)=O)c1C | -3 | nt | 9.2 | nt | 2 | 7 | 11361
Fc1cccc(Cl)c1Cn1nnc2c(N3CCC4(CC3)OCCO4)ncnc21 | 11 | -16 | -2.1 | -7 | nt | nt | 2910
Cc1cc(C)c[n+](-c2[nH]c(=O)sc2/C=N/NC([S-])=Nc2ccccc2)c1 | nt | 7 | nt | 13 | nt | nt | 8314
[O-][n+]1c2c(c3c4non(O)c4ccc31)CCCC2 | -17 | -2 | 2.6 | 3 | 7 | -6 | 11324
Cc1ccn(CCC(=O)Nc2ccc(-c3ccno3)cc2)n1 | 10 | -22 | 3.2 | 1 | 2 | -5 | 6305
O=[N+]([O-])c1c(Nc2ccc(Br)cc2)ccc2nonc12 | 15 | -12 | 9.2 | -1 | 8 | 1 | 3181
N#CCc1ccc(NC(=O)Nc2cccc3ccccc23)cc1 | 1 | -36 | -1.5 | 2 | 8 | 8 | 4041
O=C(COC(=O)c1ccccc1OCc1ccc(Cl)cc1)NC1CC1 | 1 | -9 | 3.3 | 11 | -9 | 2 | 4320
CCCCCc1ccc(-c2ccc(=O)[nH]n2)cc1 | 3 | -18 | 9.5 | -6 | 11 | 11 | 3900
O=C(CNC1CCCCCC1)Nc1ccc(S(=O)(=O)NC2CC2)cc1 | -1 | -2 | 1.8 | 4 | -8 | -2 | 9245
Cc1nnsc1C(=O)NN=Cc1ccccc1Cl | 1 | nt | 11 | nt | 15 | 5 | nt
c1cc(-c2cc3cc4c(cc3cn2)OCO4)cs1 | -12 | -46 | 9.8 | nt | nt | nt | 3496
Nc1ccc(C(=O)Nc2nc3ccccc3s2)cc1 | -9 | -24 | 2.0 | -2 | nt | nt | 5494
CCCC(C)n1[nH]c(=O)c2c1NC(=O)CSC2c1ccc(OC)c(OC)c1 (configuration not stated) | 1 | -25 | 3.0 | 4 | 2 | 0 | 20582*
Cc1ccccc1OCc1nc(-c2ccc(NC(=O)c3ccco3)cc2)no1 | 5 | -47 | 1.2 | nt | nt | nt | 3642
CC(C)c1ccc(CNc2ccc([N+](=O)[O-])cn2)cc1 | -14 | -27 | -4.2 | -40 | -20 | 6 | 3217
CN(C(=O)Cn1cnc2sccc2c1=O)C1CCCCC1 | -3 | 0 | -0.8 | nt | -15 | 3 | 3683
CC1CCCN(C(=S)Nc2ccc3nc4n(c(=O)c3c2)CCCCC4)C1 (configuration not stated) | 6 | -18 | 3.6 | -10 | 0 | 7 | 2485
Nc1nnc(CC(=O)NN=Cc2ccc(-c3ccccc3)o2)s1 | -1 | nt | 2.1 | nt | 9 | 1 | nt

Some entries already given with just Mtb hypoxia inh and Mtb hypoxia inh growth.
compound | Mtb hypoxia inh | Mtb hypoxia inh growth
Cc1ccc(NC(=O)Cn2cccc2C2=NC(c3ccccc3)CO2)c(C)c1 (configuration not stated) | 9 | 2
Cc1cccc(N(CC(=O)NCCC2=CCCCC2)S(C)(=O)=O)c1C | 2 | 7

Later entries:
SMILES | Sa ugtP lethal | PrP UTR inh | Sa RN4220 lethal | BJeLR lethal | Mtb hypoxia inh | Mtb hypoxia inh growth | Bead autofluor
CCOC(=O)C1=C(CN2CCCCCC2)NC(=O)NC1c1cccc([N+](=O)[O-])c1 (configuration not stated) | 2 | 5 | 12 | -7 | 13 | 8 | 4624
O=C(Nc1ccccn1)c1ccc(Cl)c(S(=O)(=O)N2CCCC2)c1 | 0 | -38 | 3.4 | -1 | 7 | -1 | 6694
Cc1ccc(S(=O)(=O)N(C)C)cc1NC(=O)C(C)N(C)CCOc1ccc(Cl)cc1 (configuration not stated) | -2 | -16 | 0.9 | 6 | 3 | -3 | 3814
COc1ccc(-c2oc3ccccc3c(=O)c2OCC(=O)O)cc1 | 12 | -14 | 8.8 | -4 | 2 | 6 | 3369
CCOc1ccc(C(=O)Nc2nnc(S(=O)(=O)N3CCCCC3)s2)cc1 | 0 | -10 | 3.3 | 5 | 3 | 2 | 5497
Cc1ccc(-n2c(C)c([N+](=O)[O-])c3ccc(O)c(CN(C)C)c32)cc1 | -4 | 16 | -1.3 | 3 | 12 | 14 | 9441
O=C(NCc1ccccc1)c1ccc2c(=O)n3c(nc2c1)CCCCC3 | 2 | -11 | 0.6 | -5 | 2 | 6 | 4040
CCC(C)[C@H](NC(=O)Nc1ccc(C(C)=O)cc1)C(=O)OC (some centres not stated) | nt | -18 | nt | -2 | nt | nt | 2869
O=C(Nc1cccc([N+](=O)[O-])c1)Nc1cccc([N+](=O)[O-])c1 | -27 | -10 | -5.5 | 1 | 6 | 12 | 2444
O=C(CCCCCn1c(=S)[nH]c2cc3c(cc2c1=O)OCO3)N1CCN(Cc2ccccc2)CC1 | 73 | -37 | 2.9 | nt | 2 | 21 | 4278
Cc1ccc(F)cc1NC(=O)Nc1cc(C(C)(C)C)nn1C | -3 | -3 | 5.1 | 3 | 15 | 12 | 3973
Cc1ccc2ncc([N+](=O)[O-])n2c1 | 5 | 1 | 4.4 | -6 | -1 | 5 | 21684*
COc1ccc(/C=C2/C(=O)OCc3cc(OC)c(OC)cc32)cc1 | -4 | 4 | 5.2 | 23 | -3 | 2 | 2231
Cc1ccc(C)c(OC(=O)c2cccc(S(=O)(=O)N3CCN(C)CC3)c2)c1 | 3 | -6 | 0.9 | -4 | 0 | -2 | 6523
COc1ccc(-c2cc(C(=O)Nc3ccccc3SC)no2)cc1OC | 10 | -14 | 1.8 | 10 | -3 | 2 | 23175*
O=C(O)CSCC(=O)NCc1cccc(C(F)(F)F)c1 | 1 | -15 | 3.3 | -1 | -8 | 4 | 3550
Cc1cccc(C(=O)Nc2cc(NC(=O)c3cccs3)ccc2C)c1 | 0 | -6 | 1.0 | 3 | -1 | 5 | 3686
Fc1ccc(CN2CCN(C(c3ccccc3)c3ccccc3)CC2)cc1 | 10 | -34 | -5.9 | -2 | 5 | 3 | 4159
CCCCCc1ccc(-c2cn(Cc3ccc(C)cc3)nn2)cc1 | -6 | -34 | 3.1 | 7 | 6 | 10 | 4303
CC(=O)c1ccc(N2CCN(C(=O)c3cc(-c4cccnc4)nc4ccc(Br)cc34)CC2)cc1 | 1 | -24 | 32 | 2 | 8 | 17 | 4604
CC(C)(C)NC(=O)C1CCN(C(=O)c2ccco2)CC1 | 8 | 2 | 1.5 | 1 | -5 | 3 | 5855
CCN(CC)S(=O)(=O)c1ccc(N/N=C/c2ccc(O)cc2O)nc1 | nt | 15 | nt | 29 | nt | nt | 2241
Cn1c(Cn2c(=O)sc3ccccc32)nnc1SCC(=O)N1CCc2ccccc21 | 3 | -27 | 2.0 | nt | nt | nt | 5702
COc1ccc(N2CCN(C(=O)CN3C(=O)NC(C)(c4ccc5ccccc5c4)C3=O)CC2)cc1 (configuration not stated) | -3 | 11 | 1.4 | nt | 1 | 9 | 5522
COCCN(Cc1cc2cc(C)c(C)cc2nc1Cl)C(=O)Nc1ccccc1 | 3 | 1 | 0.8 | -9 | 0 | -5 | 4563
O=C(O)CCC1(C(=O)O)OCCc2ccccc21 (configuration not stated) | -4 | -4 | -0.7 | 1 | -7 | -5 | 12586
O=Cc1ccc(OCc2ccc3c(c2)OCO3)cc1 | 6 | -36 | 6.0 | 5 | 7 | -2 | 3695
CC1(c2ccccc2Cl)NC(=O)N(CC(=O)Nc2ccc(N3CCCCC3)cc2)C1=O (configuration not stated) | 3 | -10 | 0.6 | 3 | -2 | -3 | 5597
COc1ccc(OCCN2CCN(S(=O)(=O)c3ccccc3C#N)CC2)cc1 | -1 | -13 | -1.6 | nt | 1 | 12 | 6129
Cc1ccccc1OCC(O)CN1CCC(C)CC1 (configuration not stated) | 3 | -12 | 0.0 | 0 | 0 | -4 | 2482
Cc1nnc(-c2ccc(Oc3ccc(Cl)cc3)c([N+](=O)[O-])c2)o1 | -4 | -16 | 0.6 | -14 | -9 | 10 | 2113
